Calb FLC: affects C. albicans growth with fluconazole; C. albicans CaCi-2 (fluconazole-resistant clinical isolate) + fluconazole, Alamar Blue growth, 48 h; growth inhibition, % (no concentration beside the values); 300,000 tested, 0.57% active;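 active = most replicates above 75%; inconclusive = exactly half above 75%; inactive = most below 75%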;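 note: all wells also contain fluconazole at 8 µg/ml as a sub-toxic cotreatment; 0% = median of DMSO wells and 100% = median of geldanamycin control wells; wells of about 8 µL received 7.5 nL stock; the first replicate is given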
Beta2AR agonist: agonists of human beta-2 adrenergic receptor inducing internalization | P07550 | Am2.2-beta2AR cells, FAP receptor internalization, flow cytometry; reference of the scale not given here | response, % (no concentration beside the values) | 340,000 tested, 0.43% active | AID 504454;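 active = response above a set limit, near 3 SD of response in nonfluorescent compounds, cut at about 42% in these data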;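 note: stock transfer was 100 nL into about 11 µL; a reference agonist was the positive control; negative values mostly stem from fluorescent compounds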
Target sequence (P07550 whole entry, looked up): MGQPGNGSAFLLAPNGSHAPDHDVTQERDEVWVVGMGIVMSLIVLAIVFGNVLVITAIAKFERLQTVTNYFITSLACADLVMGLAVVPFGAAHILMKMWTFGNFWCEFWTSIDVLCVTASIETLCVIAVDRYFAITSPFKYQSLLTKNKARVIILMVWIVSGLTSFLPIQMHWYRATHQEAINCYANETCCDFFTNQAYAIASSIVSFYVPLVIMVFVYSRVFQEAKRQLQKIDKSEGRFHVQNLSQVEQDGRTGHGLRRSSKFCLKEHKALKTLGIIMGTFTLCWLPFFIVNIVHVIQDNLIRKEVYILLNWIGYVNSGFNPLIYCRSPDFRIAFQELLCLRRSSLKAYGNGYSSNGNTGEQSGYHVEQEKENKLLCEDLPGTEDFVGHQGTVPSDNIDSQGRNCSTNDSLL
A1 inh: inhibitors of the anti-apoptotic protein A1, read as caspase activation. AID 2462. caspase activation, % (test concentration not listed). 330,000 tested, 0.066% active. MEF A1-2A-BIM cells, Caspase-Glo 3/7 luminescence, 3 h; percent of clofoctol response, vehicle zero;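 active = over half of replicate activation scores above 10%, or exactly half above 10 with the replicate mean above 10; inconclusive = replicate mean below 10 yet half the replicates above 10; inactive = over half of replicates below 10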;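 note: wells of about 30 µL received 50 nL stock; many hits fall short of the cut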
ALR inh: human ALR oxidase inhibition via reduced H2O2; AID 485317; 290,000 tested, 3.8% active; purified ALR, DTT oxidation, H2O2 HRP-luminol luminescence; inhibition, % (concentration not given with the values);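 active = mean and each replicate at 75% or more; inconclusive = only one of the two met; inactive = neither met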;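 note: stock transfer was 7.5 nL into about 7.5 µL; 0% = neutral wells and 100% = wells with inactivated enzyme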
Target sequence (P55789 whole entry, looked up): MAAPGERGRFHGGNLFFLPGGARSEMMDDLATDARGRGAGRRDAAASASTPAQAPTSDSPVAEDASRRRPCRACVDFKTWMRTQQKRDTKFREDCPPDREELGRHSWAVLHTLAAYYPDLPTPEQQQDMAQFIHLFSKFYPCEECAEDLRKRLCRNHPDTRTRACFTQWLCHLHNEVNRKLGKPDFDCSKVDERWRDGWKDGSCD
T cruzi repl: T. cruzi replication inhibition; T. cruzi beta-gal in NIH3T3, luminescence, 90 h; inhibition, % (test concentration not listed); 300,000 tested, 1.4% active; AID 1885;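 active = mean inhibition across valid replicates above about 55%, limit read from the data; inconclusive = mean below that limit but half or more replicates reach it; inactive = mean below it, under half of replicates reach it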;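 note: signal also drops with host cell toxicity which is not excluded here; 0% = plate median of DMSO wells and 100% = zero luminescence signal; higher percent means less beta-gal luminescence so fewer parasites; stock transfer was 50 nL into about 50 µL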
Ecoli rRNA inh: inhibitors of bacterial rRNA selective over humanized ribosomes. E. coli WT GFP vs humanized-ribosome RFP mutants, fluorescence, 24 h; hits give low values; DMSO median 0, no signal -100. GFP signal change (wild-type ribosome), % (concentration not given with the values). 350,000 tested, 1.6% active. AID 720706;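 active = significant combined selectivity score with lowered wild-type GFP, culture density cut under 30%, mutant RFP and density less affected; inactive = any of these conditions unmet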; note: one replicate is shown; some compounds called inactive have numbers as strong as hits
Beta apoptosis: beta cell apoptosis inhibition; AID 435005; protection from apoptosis, % (test concentration not listed); INS-1E cytokine-induced death, ATP luminescence, 48 h; percent of positive-control rescue, neutral wells zero; 300,000 tested, 0.8% active;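 active = all replicates at 75% or more, or half of them and the mean; inconclusive = half reach 75% but not the mean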;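 note: 0% = cytokine-treated negative control wells and 100% = positive control rescue; higher means more ATP so stronger rescue from cytokine killing; wells of about 40 µL received 100 nL stock; the first replicate is given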
LANA-H2A inh: blocks KSHV LANA binding to histone H2A/H2B | Q9QR71 | cell-free LANA-H2A/H2B peptide, fluorescence polarization | inhibition, % (no concentration beside the values) | 320,000 tested, 0.6% active; in the data active = inhibition mostly above about 10%, no sharp cut-off; inactive = mostly below about 6.7%;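 note: stock transfer was 7.5 nL into about 10 µL; 0% = median of vehicle wells and 100% = median of positive control wells; one replicate is shown; the record names a cut of 25% in any replicate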
Ecoli rRNA inh OD600: second read-out of Ecoli rRNA inh, no call of its own (marks repeat the call); OD600 change, %; measured here: OD600 growth;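 optical density of the mix in the first replicate; 0 = DMSO median and -100 = no signal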
Ecoli rRNA inh RFP: further read-out of Ecoli rRNA inh, marked with its call; RFP signal change, %; measured here: RFP humanized mutant strains;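 first replicate; 0 = DMSO median and -100 = no signal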
An asterisk follows results filed as active; ? = inconclusive; . = not tested or not shown.

SMILES	Calb FLC	Beta2AR agonist	A1 inh	ALR inh	T cruzi repl	Ecoli rRNA inh	Ecoli rRNA inh OD600	Ecoli rRNA inh RFP	Beta apoptosis	LANA-H2A inh
CC(C)(C)c1cc(/C=N/NC(=O)C[n+]2ccccc2)cc(C(C)(C)C)c1O	4	-4	-1.0	3	9	-8	-4	-0.8	9	-4.1
Cc1nc2c(c3c1[nH]c1ccccc13)C(=O)CC(C)(C)C2	1	6	-0.2	-12	11	.	.	.	-10	-1.7
CCC(C)N(C(=O)CSc1ccc(NC(C)=O)cc1)C1CCS(=O)(=O)C1 (stereo unspecified)	-1	4	0.6	88*	5	10	12	-2.1	-4	-0.8
O=S1(=O)CCC(NC(=S)NC2CCS(=O)(=O)C2)C1 (stereo unspecified)	26	6	0.0	3	-2	-8	-6	-12	-3	0.1
O=C(c1ccc2c(=O)n3c(nc2c1)CCCCC3)N1CCN(c2cccc(Cl)c2)CC1	-3	3	0.3	0	9	-5	-44	-4.6	9	2.5
CSc1ccc(CN(C)C(=O)CCNS(=O)(=O)c2ccc(C)c(C)c2)cc1	1	-4	0.0	.	20	-23	-50	4.6	3	-0.4
CC(=O)c1cc(O)c2ccccc2c1O	36	28	-0.3	-2	-1	16	-26	9.4	-2	5.3
CCCCCCCCC[n+]1cccc2c3ccccc3ccc21	4	-5	-0.5	-13	59*	.	.	.	111*	-6.1
O=C(CCCl)Nc1nnc(SCC(=O)NC2CCCC2)s1	-8	4	-0.3	-2	-12	9	5	6.2	.	-3.8
NS(=O)(=O)c1ccc(NC(=S)N2CCC(Cc3ccccc3)CC2)cc1	12	-6	-1.3	1	1	-14	-24	26	4	1.9
O=C(Nc1ccccc1C(=O)NCC1CCCO1)c1ccc(Cl)cc1 (stereo unspecified)	13	-2	0.0	-3	-4	-9	-14	-3.6	-7	2.5
Cc1nnc(N2C(=O)C(O)=C(C(=O)c3ccco3)C2c2ccc(C(C)C)cc2)s1 (stereo unspecified)	12	-1	-1.2	97*	-2	.	.	.	-5	-1.3
Cc1nn(C)cc1C(C(=O)NC1CCCCC1)N(CCc1ccccc1)C(=O)c1cnccn1 (stereo unspecified)	-1	2	-0.3	-9	7	3	5	-2.4	-3	0.6
CCCn1c(SCC(=O)NC(C)C23CC4CC(CC(C4)C2)C3)n[nH]c1=O (stereo unspecified)	5	0	?	5	6	.	.	.	-3	-6.1
Cc1oc2c(c1C(=O)Nc1cccc3ccccc13)CCCC2	1	-25	-0.1	-2	-21	.	.	.	-4	1.4
CC(C)CNC(=O)CSc1ccc(S(=O)(=O)N2CCN(C)CC2)cn1	.	-1	0.3	-4	.	.	.	.	4	2.3
Cc1ccc(N2C(=O)CC(N3CCN(c4ccc(F)cc4)CC3)C2=O)c(C)c1 (stereo unspecified)	-3	6	0.8	26	6	-10	-15	-3.0	-4	1.7
O=C(COc1cccc(Br)c1)N/N=C1\CCSC1	-41	-2	0.0	52	3	1	-3	-1.0	-2	-1.1
COC(=O)C1CCN(C(=O)COC(=O)CSc2ccc(C(N)=O)cc2[N+](=O)[O-])CC1	-3	-3	0.9	.	-5	2	3	-1.9	.	-0.9
COc1cc2[nH]c3c(N4CCC(C(N)=O)CC4)ncnc3c2cc1OC	3	.	0.5	-3	-4	.	.	.	-2	-2.9
O=C(CCC1CCCCC1)Nc1ccccc1C(=O)N1CCOCC1	-1	-4	0.5	0	-6	12	1	3.7	-2	0.8
CCOC(=O)N1CCC(NC(=O)c2ccc(Cl)cc2)CC1	1	4	0.1	-56	-2	8	5	1.3	0	1.1
CCOC(=O)C(C)Oc1ccc2c(CC)cc(=O)oc2c1C (stereo unspecified)	0	7	0.7	-2	6	.	.	.	.	0.2
Cc1nn(C2CCCO2)c(=O)nc1N (stereo unspecified)	-8	.	-0.4	-11	4	22	14	3.0	-1	2.9
Cc1ccc(C)c(OCc2nnc(NC(=O)c3ccco3)s2)c1	36	-15	-0.6	1	-17	.	.	.	-2	7.7
Cc1ccc(/C=N/NC(=O)c2ccccc2OCc2ccc(F)cc2)o1	-8	-12	0.4	.	27	-5	-9	3.9	-8	2.1
Cc1ccc(C(=O)COC(=O)CNC(=O)c2ccccc2)s1	.	10	-1.3	-2	.	2	12	0.6	-1	1.7
COc1cccc2c1Oc1ncccc1N(C(=O)CCC(=O)NCc1ccccc1F)C2	?	-3	0.4	-7	16	12	7	1.4	-11	-0.8
N#C/C(=C\c1c(N2CCC(C(N)=O)CC2)nc2ccccn2c1=O)C(=O)NCc1ccco1	-26	-2	-0.1	5	-4	.	.	.	-2	-1.5
COc1cccc(-c2nn(-c3ccccc3)cc2CN(C)Cc2ccno2)c1	27	-1	-0.2	-12	17	-26	-28	-4.2	-9	-1.1
CCCCCCOC(=O)Cc1c(C)nc(-c2ccccc2)[nH]c1=O	-5	0	-0.2	-1	-7	.	.	.	-4	1.9
Cn1c(CCNC(=O)c2ccccc2F)nnc1SCC(=O)Nc1ccccc1F	15	-6	0.7	-8	-12	0	-3	-0.1	-11	0.8
CC(C)(C)c1cc(NCc2ccccn2)n2ncc(-c3ccccc3)c2n1	8	2	-0.2	.	.	-4	-1	5.7	.	2.7
COCCCNCCOCCOc1ccc(Cl)cc1Br	4	-3	0.3	17	36	.	.	.	3	-2.0
N#CC1=C(N)Oc2n[nH]c(-c3ccccc3)c2C1c1cccnc1 (stereo unspecified)	1	0	0.3	16	-11	.	.	.	-1	2.1
Cc1ccc(NC(=O)O/N=C/c2ccc(F)cc2)cc1	-7	-1	-0.9	-5	-3	1	5	3.8	-4	2.7
CC1(C)C(CC2OCC(CN3CCCCC3)O2)[C@H]2CC[C@@H]1C2 (stereo partly specified)	7	-2	-0.3	-8	22	0	-5	1.2	1	-3.8
Cc1ccc(C(=O)NC(C(=O)OCc2cn3cc(Cl)ccc3n2)C(C)C)cc1 (stereo unspecified)	.	-11	0.3	.	.	-14	-15	5.7	-3	3.8
CC(C)CC(COCc1ccc([N+](=O)[O-])cc1)N1CCN(C(=O)c2ccc(C(F)(F)F)cc2)CCC1=O (stereo unspecified)	3	-8	0.1	-3	34	-7	-5	0.8	5	-8.7
Cc1csc(NC(=O)CSc2nc(C)nc3c2c(=O)n(C)c(=O)n3C)n1	1	3	-0.5	98*	-20	-5	5	5.2	5	0.8
Cc1ccccc1SCC(=O)OCC(=O)Nc1sccc1C(N)=O	7	5	0.3	?	1	-29*	-8.1*	6.0*	-8	-7.0
CCC(CC)c1nnc(NC(=O)c2nn(C)c(=O)c3ccccc23)s1	-2	12	0.6	.	-1	.	.	.	-5	5.3
N#Cc1ccc(C(=O)NCC(c2ccco2)N2CCCC2)cc1 (stereo unspecified)	17	-8	-0.2	1	5	.	.	.	.	2.9
CC1CCN(C(=O)c2[nH]cnc2C(=O)N[C@@H](CCCCNC(=O)OC(C)(C)C)C(=O)OC(C)(C)C)CC1	-3	0	0.4	6	-8	0	5	9.6	12	-1.0
COc1ccc(CN2C(=O)CC(Cc3cc(C)cc(C)c3)C2=O)cc1OC (stereo unspecified)	?	1	1.9	.	-5	-20*	-2.8*	1.5*	-3	2.0
Cc1ccc2nc(SCC(=O)c3ccc(Cl)s3)[nH]c2c1	-16	-8	0.1	-5	2	-55	-79	-28	-13	0.1
CCn1ncc(Br)c1C(=O)NC(C)c1ccccc1 (stereo unspecified)	3	3	0.8	.	-16	.	.	.	.	3.0
COc1ccc(CCN(Cc2ccccn2)C(=S)Nc2cccc(C)c2)cc1OC	-9	2	0.2	-3	5	29	22	3.7	-1	3.7
COc1ccc(CCNC(=O)Nc2cc(F)c(F)cc2Cl)cc1OC	36	0	-1.3	-1	-14	-1	1	1.0	-3	5.8
CC(Nc1ccc(Br)cc1)C(=O)N/N=C/c1ccccc1OCc1ccccc1 (stereo unspecified)	-9	15	-0.6	1	-1	.	.	.	-2	2.8
O=C(CSc1nnc2ccccn12)Nc1ccccc1Cl	.	-5	0.3	-8	.	0	2	-3.9	5	3.7
CC(=O)Nc1ccc(S(=O)(=O)NCCSCc2ccc(Cl)cc2Cl)cc1	-9	-4	-1.3	-6	-27	.	.	.	.	0.4
Cc1ccc(C(=O)CCC(=O)NC2CCCC(C)C2C)cc1 (stereo unspecified)	-14	-8	0.2	0	3	6	0	-1.1	2	0.8
COC(=O)c1[nH]c2c(c1C)C(=O)CC(c1ccc(OC)c(OC)c1)C2 (stereo unspecified)	-2	-4	-0.1	.	-3	3	0	3.4	0	5.1
CC1(C)CC(=O)C2=C(C1)OC(N)=C(C#N)C2Cc1ccccc1 (stereo unspecified)	2	-1	0.5	-2	-5	-10	-3	1.6	-1	-5.2
COC(=O)[C@H](CC(C)C)NCc1cccc(CN[C@@H](CC(C)C)C(=O)OC)c1	5	-1	0.3	2	16	10	-1	2.9	-9	0.0
O=C(Cc1ccccc1)NC(NC(=S)Nc1cc(Cl)ccc1Cl)C(Cl)(Cl)Cl (stereo unspecified)	10	5	0.4	-8	-7	.	.	.	4	-3.3
Cc1cccc(N(CC(=O)NC2CCCC2)C(=O)CCC(=O)Nc2cc(C)on2)c1	6	-3	0.0	.	4	2	5	0.8	-3	5.4
Cc1cc(CNC(=O)c2ccc3oc(C(C)C)nc3c2)nn1C	-6	-9	0.6	-7	-17	-9	-21	19	-2	-1.7
CC12CC3CC(C)(C1)CC(C(O)CN1CCOCC1)(C3)C2 (stereo unspecified)	25	-3	0.1	-5	-31	19	8	2.1	-2	3.5

Next section.
SMILES	Calb FLC	Beta2AR agonist	A1 inh	ALR inh	T cruzi repl	Ecoli rRNA inh	Ecoli rRNA inh OD600	Ecoli rRNA inh RFP	Beta apoptosis	LANA-H2A inh
COC(=O)c1c(C)[nH]c(C(=O)COC(=O)CCNS(=O)(=O)c2cccc(C(F)(F)F)c2)c1C	.	11	0.4	.	.	-1	-24	-0.4	-10	-4.4
CC1CCC(C(C)C)C(OC(=O)COC(=O)c2ccc(=O)[nH]c2)C1 (stereo unspecified)	1	3	0.1	-5	-1	.	.	.	3	2.9
Cc1c(NC(=O)C(C)OC(=O)CNC(=O)c2ccccc2)c(=O)n(-c2ccccc2)n1C (stereo unspecified)	5	-4	-0.6	-26	-17	.	.	.	.	3.1
CCOC(=S)N/C(=N\S(=O)(=O)c1ccccc1)c1ccccc1	-6	-2	0.5	-5	-8	.	.	.	-7	2.6
Cc1ccc(SCc2nc(N)nc(Nc3ccccc3C)n2)cc1C	-21	-4	0.0	14	4	-5	-3	-1.9	-7	-0.2
COC(=O)c1cc(C)ccc1OCc1ccc([N+](=O)[O-])cc1	-6	0	0.2	-4	.	7	10	2.7	11	-1.7
CCCNC(=O)c1c(N)n(-c2cccc(OC)c2)c2nc3ccccc3nc12	?	15	1.0	-6	10	8	3	0.4	104*	0.4

Source: PubChem

A portion of the library. The share of hits here may be higher or lower than overall.
